RanGTP-Impb inh = inhibitors of RanGTP-importin-beta interaction, primary screen, biochemical, FRET, CFP-Ran, YFP-importin-beta, homogeneous. Ran GTPase (GTP-bound) - importin-beta complex. cell-free CFP-Ran/YFP-importin-beta FRET ratio. inhibition, % (no concentration beside the values). 300,000 tested, 1.1% active;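 active = most replicates above 15%; inconclusive = exactly half above 15%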;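 also: 0% = DMSO wells and 100% = Ran loaded with GDP instead of GTP; wells of about 40 µL received 100 nL stock; the first replicate is given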
T cruzi repl = inhibitors of intracellular T. cruzi growth, primary screen, luminescence, NIH3T3 host cells; T. cruzi beta-gal in NIH3T3, 90 h; inhibition, % (test concentration not listed); 300,000 tested, 1.4% active; AID 1885, 2009;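 active = mean inhibition across valid replicates above about 55%, limit read from the data; inconclusive = mean below that limit but half or more replicates reach it; inactive = mean below it, under half of replicates reach it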;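 also: signal also drops with host cell toxicity which is not excluded here; 0% = plate median of DMSO wells and 100% = zero luminescence signal; higher percent means less beta-gal luminescence so fewer parasites; stock transfer was 50 nL into about 50 µL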
Calb FLC = C. albicans growth inhibition with fluconazole, primary screen, CaCi-2 strain, Alamar Blue fluorescence | 300,000 tested, 0.57% active | C. albicans CaCi-2 (fluconazole-resistant clinical isolate) + fluconazole, 48 h | growth inhibition, % (test concentration not listed);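 active = most replicates above 75%; inconclusive = exactly half above 75%; inactive = most below 75%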;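 also: all wells also contain fluconazole at 8 µg/ml as a sub-toxic cotreatment; 0% = median of DMSO wells and 100% = median of geldanamycin control wells; wells of about 8 µL received 7.5 nL stock; the first replicate is given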
ALR H2O2 inh = inhibitors of human ALR sulfhydryl oxidase, primary screen, biochemical, H2O2 detection, HRP-luminol luminescence, single point | 290,000 tested, 3.8% active | inhibition, % (no concentration beside the values) | AID 485317, 2010 | purified ALR, DTT oxidation | FAD-linked sulfhydryl oxidase ALR (Homo sapiens), P55789;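 active = mean and each replicate at 75% or more; inconclusive = only one of the two met; inactive = neither met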;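 also: stock transfer was 7.5 nL into about 7.5 µL; 0% = neutral wells and 100% = wells with inactivated enzyme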
Target sequence (P55789 whole entry, looked up): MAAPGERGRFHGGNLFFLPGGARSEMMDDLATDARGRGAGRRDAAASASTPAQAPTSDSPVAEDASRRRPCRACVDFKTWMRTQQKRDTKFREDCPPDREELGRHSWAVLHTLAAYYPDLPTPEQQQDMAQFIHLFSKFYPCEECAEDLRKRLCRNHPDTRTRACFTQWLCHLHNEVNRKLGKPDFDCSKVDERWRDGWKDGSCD
Beta apoptosis = inhibitors of cytokine-induced beta cell apoptosis, primary screen, luminescence | 300,000 tested, 0.8% active | protection from apoptosis, % (concentration not given with the values) | INS-1E cytokine-induced death, ATP luminescence, 48 h; percent of positive-control rescue, neutral wells zero;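 active = all replicates at 75% or more, or half of them and the mean; inconclusive = half reach 75% but not the mean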;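 also: 0% = cytokine-treated negative control wells and 100% = positive control rescue; higher means more ATP so stronger rescue from cytokine killing; wells of about 40 µL received 100 nL stock; the first replicate is given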
FGF22 binding = binders of human FGF22 protein, primary screen, FGF22 synaptogenesis inhibitor project, biophysical, thermal shift, single point | Fibroblast growth factor 22 (Homo sapiens), Q9HCT0 | recombinant FGF22 thermal shift, SYPRO orange fluorescence; percent of sucrose octasulfate shift, DMSO zero | calls only at 9.99 µM | 340,000 tested, 1.5% active;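 active = melting point raised past a set limit in the mean and every replicate; inconclusive = no clear call; three in four hits are not shown here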
Target sequence (Q9HCT0 whole entry, looked up): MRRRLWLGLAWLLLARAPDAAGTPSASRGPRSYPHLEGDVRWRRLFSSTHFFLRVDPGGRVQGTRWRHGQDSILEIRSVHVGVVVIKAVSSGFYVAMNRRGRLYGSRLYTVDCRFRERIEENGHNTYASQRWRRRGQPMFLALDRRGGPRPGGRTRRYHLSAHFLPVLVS
MLL AF4-AF9 inh = inhibitors of AF4 peptide binding to AF9, primary screen, biochemical, AlphaScreen, biotin-AF4 peptide, FLAG-AF9, single point; AID 651704, 2012; inhibition, % at 10 µM; Protein AF-9 (Homo sapiens), P42568; 350,000 tested, 0.47% active;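 active = every replicate reaching a set inhibition limit, whatever the replicate mean, cut at about 25% in these data; inconclusive = mean inhibition reaches that limit but some replicates miss it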;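 also: 0% = plate neutral control median and 100% = total signal loss; the record names both 10 and 1 µM as test concentration; the first replicate is given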
Target sequence (P42568 whole entry, looked up): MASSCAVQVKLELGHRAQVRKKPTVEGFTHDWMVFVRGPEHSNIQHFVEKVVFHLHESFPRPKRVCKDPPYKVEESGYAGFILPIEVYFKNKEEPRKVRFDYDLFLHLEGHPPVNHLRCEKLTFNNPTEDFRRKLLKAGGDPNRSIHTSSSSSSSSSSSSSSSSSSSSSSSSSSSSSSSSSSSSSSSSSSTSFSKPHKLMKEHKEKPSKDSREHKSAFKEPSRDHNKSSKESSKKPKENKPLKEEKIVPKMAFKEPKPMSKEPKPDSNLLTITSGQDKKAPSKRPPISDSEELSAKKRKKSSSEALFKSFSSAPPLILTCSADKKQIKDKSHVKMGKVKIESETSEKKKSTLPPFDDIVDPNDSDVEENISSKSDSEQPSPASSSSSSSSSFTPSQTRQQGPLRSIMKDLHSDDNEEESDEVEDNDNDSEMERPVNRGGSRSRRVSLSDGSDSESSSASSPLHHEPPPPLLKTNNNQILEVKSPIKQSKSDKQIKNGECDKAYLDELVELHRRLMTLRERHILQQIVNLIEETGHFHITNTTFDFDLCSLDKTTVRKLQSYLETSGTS
Ecoli rRNA inh = reduced GFP signal of wild-type E. coli, primary screen, bacterial rRNA inhibitor project, GFP/RFP fluorescence, OD600, single point; E. coli WT GFP vs humanized-ribosome RFP mutants, 24 h; hits give low values; DMSO median 0, no signal -100; GFP signal change (wild-type ribosome), % (test concentration not listed); 350,000 tested, 1.6% active; AID 720706, 2013;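 active = significant combined selectivity score with lowered wild-type GFP, culture density cut under 30%, mutant RFP and density less affected; inactive = any of these conditions unmet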; also: one replicate is shown; some compounds called inactive have numbers as strong as hits
Ecoli rRNA inh OD600 = also measured in Ecoli rRNA inh; calls as there; OD600 change, %; measured here: OD600 growth;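 optical density of the mix in the first replicate; 0 = DMSO median and -100 = no signal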
Ecoli rRNA inh RFP = also measured in Ecoli rRNA inh; calls as there; RFP signal change, %; measured here: RFP humanized mutant strains;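 first replicate; 0 = DMSO median and -100 = no signal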
Active calls of the source: *; i = inactive; ? = inconclusive; · = not tested or not shown; & = joins results of further samples. Some of the compounds tested. The share of hits here may be higher or lower than overall.

SMILES	RanGTP-Impb inh	T cruzi repl	Calb FLC	ALR H2O2 inh	Beta apoptosis	FGF22 binding	MLL AF4-AF9 inh	Ecoli rRNA inh	Ecoli rRNA inh OD600	Ecoli rRNA inh RFP
Cc1c(NC(=O)COC(=O)c2cc(-c3ccc(-c4ccccc4)cc3)nc3ccccc23)c(=O)n(-c2ccccc2)n1C	-1.6	-49	4	0	1	i	-7.8	-3	-1	2.0
CCOc1ccc(CCNC(=O)c2ccc(N3CCCC3=O)cc2)cc1OCC	3.4	5	14	13	1	·	·	·	·	·
Oc1[nH]c2ccccc2c1C1=NCCCC1	2.0	-14	-6	98*	-9	·	-6.6	·	·	·
C[C@H](CO)N1C[C@H](C)[C@@H](CN(C)S(=O)(=O)c2ccc(F)cc2)Oc2ccc(NC(=O)Nc3ccccc3)cc2C1=O	·	·	·	-1	-6	i	-6.6&1.1	1&-16	-2&-9	4.0&13
O=C(O)c1ccccc1C(=O)N1N=C(c2ccccc2)CC1c1ccccc1O (stereo not drawn)	?	9	-4	·	-3	i	-0.4	-23	-35	-11
CC1CCN(C(=O)CN(c2ccc3c(c2)OCCO3)S(=O)(=O)c2ccccc2)CC1	6.5	-3	-2	-3	0	i	3.9	-8	-11	-0.9
COc1ccc(C)cc1NC(=O)CSc1nnc(COc2ccc(Cl)cc2)n1Cc1ccco1	-4.6	17	-5	-11	4	·	·	·	·	·
COc1cc(C(=O)NCC(=O)OC(C)C(=O)Nc2ncc(Cl)cc2Cl)cc(OC)c1OC (stereo not drawn)	0.8	-24	0	0	1	i	-0.2	3	-5	0.1
CCOC(=O)c1c(C)[nH]c(C(=O)N/N=C\c2ccccc2Cl)c1C	1.0	4	-5	-7	4	·	·	·	·	·
COc1ccc(OCC(=O)N/N=C/C(C)=C/c2ccco2)c(Br)c1	0.9	-2	1	-5	1	i	-2.2	-2	-17	12
COc1ccccc1NS(=O)(=O)c1ccc(C(=O)N2CCCCCC2)cc1	·	·	·	10	1	i	1.0	-9	-15	1.9
O=S(=O)(Nc1cc(Cl)ccc1N1CCCCC1)c1cccs1	1.4	13	7	-9	1	·	·	·	·	·
CCN(CC)CCCNc1ncnc2ccccc12	-0.1	-2	-1	-1	1	i	3.0	17	8	-0.2
COC(=O)c1ccc(COC(=O)C23CC4CC(CC(O)(C4)C2)C3)o1	?	0	4	2	4	·	·	·	·	·
COC(=O)c1cc(Cl)cc2c(C)c(C3(O)CCCCC3)[nH]c12	-0.1	5	-5	-1	6	i	-3.1	-8	-21	18
COc1ccc(C(=O)Cc2ccc(OC)c(OC)c2)c(OC)c1	2.0	-23	-16	-32	2	i	-2.0	4	2	4.1
O=c1[nH]cnc2c1ncn2[C@@H]1O[C@H](CO)[C@@H](O)[C@H]1O	-2.0	-25	·	·	·	i	0.0	15	9	0.1
COc1ccc(N2CCN(S(=O)(=O)c3ccc(-c4cc(C)no4)s3)CC2)cc1	-1.4	0	8	-3	-3	i	-2.8	11	13	0.8
COC(=O)c1cnn2c(C(F)(F)F)cc(-c3ccccc3)nc12	-0.6	4	?	-2	-2	·	·	·	·	·
Cc1nonc1OCC(C)(COc1nonc1C)NC(=O)c1ccc(Cl)cc1	-2.5	3	?	63	3	·	·	·	·	·

ALR H2O2 inh, entries above that show a hit.
mol	RanGTP-Impb inh	ALR H2O2 inh	MLL AF4-AF9 inh	Ecoli rRNA inh	Ecoli rRNA inh OD600	Ecoli rRNA inh RFP
Oc1[nH]c2ccccc2c1C1=NCCCC1	2.0	98*	-6.6	·	·	·

Individual results from the list.
Result for COC(=O)c1cnn2c(C(F)(F)F)cc(-c3ccccc3)nc12 in RanGTP-Impb inh: -0.6
Result for CC1CCN(C(=O)CN(c2ccc3c(c2)OCCO3)S(=O)(=O)c2ccccc2)CC1 in Ecoli rRNA inh: -8

(listing goes on)
SMILES	RanGTP-Impb inh	T cruzi repl	Calb FLC	ALR H2O2 inh	Beta apoptosis	FGF22 binding	MLL AF4-AF9 inh	Ecoli rRNA inh	Ecoli rRNA inh OD600	Ecoli rRNA inh RFP
O=C(O)C1CCN(c2ccc(S(=O)(=O)N3CCOCC3)cc2[N+](=O)[O-])CC1	4.8	0	-2	-53	-4	i	-0.1	1	-1	2.1
O=C(NCc1cccs1)C1CC(c2ccc(Cl)c(Cl)c2)=NO1 (stereo not drawn)	3.8	18	11	-2	-4	i	0.4	1	-2	0.4
CCOC(=O)CNC(=O)CNC(=O)Cn1ccc2ccccc2c1=O	-4.7	-15	30	-12	0	·	·	·	·	·
CO/N=C/C(C#N)=C/c1ccc(OC)c(OC)c1	2.9	5	45	-6	0	i	7.0	-21	-27	-5.2
CCCCCCc1cc2cc(C(=O)NC)c(=N)oc2cc1O	166*	-20	17	9	13	·	·	·	·	·
CN1C(=O)NC(c2ccccc2Cl)C2=C1CC(C)(C)CC2=O (stereo not drawn)	0.0	6	-9	-8	-2	i	-2.8	5	7	-3.3
COc1ccc(-c2nc3cc(NC(=O)Cc4ccc(OC)c(OC)c4)ccc3o2)cc1	-1.7	-3	36	-9	25	·	·	·	·	·
COC(=O)c1cc(CNC(=O)CCCSc2ccccc2)ccc1OC	2.9	-1	0	·	·	i	8.0	-4	0	-2.3
CSc1ncccc1C(=O)NCCc1ccccc1F	3.7	-3	1	-3	-5	i	-2.6	5	3	0.8
COc1ccc(NC(=O)COC(=O)C23CC4CC(CC(NC(C)=O)(C4)C2)C3)cc1S(=O)(=O)N1CCOCC1	·	·	·	-12	1	i	-2.9	-1	-2	2.4
COC(=O)c1cc(=O)n2c(sc3ccccc32)c1C#N	45*	-21	11	-5	-3	i	-3.1	11	11	-0.5
O=C(CCN1C(=O)[C@@H]2Cc3ccccc3CN2C1=O)NCc1ccccc1	3.0	1	-20	-7	-8	i	1.3	5	14	4.8
Cc1ccc(S(=O)(=O)N2CCC(=O)N(CCOCc3ccccc3)CC2)cc1	-2.7	4	-9	·	1	i	-1.2	4	4	0.4
CCOc1ccc(NC(=S)Nc2ccc3nsnc3c2)cc1	-1.0	-1	2	14	11	·	·	·	·	·
Cc1ccc(CNC(=O)COC(=O)CSc2ccc(Br)cc2C)cc1	?	4	1	-1	-7	·	·	·	·	·
CN1CCc2[nH]c3ccc(C(=O)NN)cc3c2C1	7.4	3	1	98*	-3	·	·	·	·	·
O=C(O)c1cn(-c2ccc(N3CCCC3)c(F)c2)c2c(F)c(F)c(F)cc2c1=O	2.8	-2	3	0	6	i	0.4	-54	-77	-14
COc1ccc(CNc2nc(NCc3ccc(OC)cc3)n(C(=O)c3ccncc3)n2)cc1	1.9	4	3	-4	-4	i	3.0	1	6	6.2
Cc1ccc(CN2CCC(C(=O)Nc3cccc(-c4cccc(F)c4)c3)CC2)o1	2.1	12	8	-32	-10	i	0.8	-2	-3	34
COc1ccccc1NC(=O)Nc1ccnn1C1CCN(C(=O)c2cccnc2)CC1	2.7	-8	-35	-3	-3	i	-1.8	4	11	-0.9

Another view of part of the listing above.
> COc1ccc(CNc2nc(NCc3ccc(OC)cc3)n(C(=O)c3ccncc3)n2)cc1
  RanGTP-Impb inh: 1.9; T cruzi repl: 4; Calb FLC: 3; ALR H2O2 inh: -4; Beta apoptosis: -4; FGF22 binding: i; MLL AF4-AF9 inh: 3.0; Ecoli rRNA inh: 1; Ecoli rRNA inh OD600: 6; Ecoli rRNA inh RFP: 6.2

> Cc1ccc(CN2CCC(C(=O)Nc3cccc(-c4cccc(F)c4)c3)CC2)o1
  RanGTP-Impb inh: 2.1; T cruzi repl: 12; Calb FLC: 8; ALR H2O2 inh: -32; Beta apoptosis: -10; FGF22 binding: i; MLL AF4-AF9 inh: 0.8; Ecoli rRNA inh: -2; Ecoli rRNA inh OD600: -3; Ecoli rRNA inh RFP: 34

Carrying on.
SMILES	RanGTP-Impb inh	T cruzi repl	Calb FLC	ALR H2O2 inh	Beta apoptosis	FGF22 binding	MLL AF4-AF9 inh	Ecoli rRNA inh	Ecoli rRNA inh OD600	Ecoli rRNA inh RFP
O=C(Cn1ncc2c([nH]c3ccccc32)c1=O)Nc1ccc(F)cc1F	-0.1	-5	22	-5	0	i	-0.3	8	11	-1.2
N#Cc1nc(-c2ccco2)oc1NCc1cccnc1	7.5	7	9	19	-2	i	-10	-3	2	-0.7
COc1ccc(CCNS(=O)(=O)c2ccc([N+](=O)[O-])cc2)cc1OC	?	-8	-13	-4	-5	i	2.1	3	1	-2.5
CCn1c(=O)cc(SCC(=O)N2CCCCC2)c2ccccc21	-0.3	3	-21	-6	-11	·	·	·	·	·
Cc1cc(C(=O)Nn2c(C)nc3ccccc3c2=O)ccc1[N+](=O)[O-]	-0.2	6	-28	-1	-6	i	0.1	9	10	0.5
CCOC(=O)c1csc(NC(=O)c2cc3ccccc3o2)n1	4.3	0	?	1	0	i	-69	-3	-2	1.4
Cn1ccnc1SCC(=O)NC12CC3CC(CC(C3)C1)C2	?	-14	-10	-15	1	·	·	·	·	·
Cc1cc(=O)oc(C)c1C(=O)NCc1ccccn1	?	-2	3	-3	-1	·	·	·	·	·
Cc1nnc(SCC2=C(C(=O)O)N3C(=O)C(NC(=O)c4cc(F)c(F)cc4Cl)C3SC2)s1 (stereo not drawn)	-0.6	-8	27	0	5	i	-6.6	31	26	4.2

Exported with values under each structure: part of the list above.
Order of values: RanGTP-Impb inh | T cruzi repl | Calb FLC | ALR H2O2 inh | Beta apoptosis | FGF22 binding | MLL AF4-AF9 inh | Ecoli rRNA inh | Ecoli rRNA inh OD600 | Ecoli rRNA inh RFP
> O=C(Cn1ncc2c([nH]c3ccccc32)c1=O)Nc1ccc(F)cc1F
→ -0.1 | -5 | 22 | -5 | 0 | i | -0.3 | 8 | 11 | -1.2
> N#Cc1nc(-c2ccco2)oc1NCc1cccnc1
→ 7.5 | 7 | 9 | 19 | -2 | i | -10 | -3 | 2 | -0.7
> COc1ccc(CCNS(=O)(=O)c2ccc([N+](=O)[O-])cc2)cc1OC
→ ? | -8 | -13 | -4 | -5 | i | 2.1 | 3 | 1 | -2.5

High-throughput results: PubChem, Broad Institute
